Compound activity deposited in PubChem by National Center for Advancing Translational Sciences (NCATS).
PINK1 modulator: PINK1 expression modulation | PINK1 immunofluorescence, high-content cytometry, 24 h | Potency, µM (series often up to 76.6 µM), without a hit: at the highest dose activation (PINK1 increase), hits mostly activators | 410,000 compounds, 0.2% hits; active = well fitted activation curve with a large enough effect; inconclusive = small, poorly fitted or top-dose-only effect; inactive = flat fitted curve, though single readings scatter; cell line not stated here;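 further: potency means the concentration at half of the fitted maximal effect; % of control where 0% means no effect; nearly all actives have a fitted effect of over 65% in size; a mitochondrial uncoupler was the plate control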
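Cells are seeded, rested 12 hours, then given compound at five concentrations or DMSO for 24 hours. After fixation, blocking and antibody staining, PINK1 amount and mitochondrial localization are scored; CCCP serves as control.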
TRPML1 agonist: activates the human TRPML1 channel; TRPML1-expressing cells, Ca2+ dye fluorescence, FDSS; host cell line not named in the record; reference of the full effect not given here; activation, % (no concentration beside the values); 410,000 compounds, 0.12% hits; in the data active = activation above about 50%; inconclusive = about 30% to 50%; inactive = below about 30%; further: 0% is about no effect; the text of the record puts the active cut at 80%
Target sequence (Q9GZU1 whole entry, looked up): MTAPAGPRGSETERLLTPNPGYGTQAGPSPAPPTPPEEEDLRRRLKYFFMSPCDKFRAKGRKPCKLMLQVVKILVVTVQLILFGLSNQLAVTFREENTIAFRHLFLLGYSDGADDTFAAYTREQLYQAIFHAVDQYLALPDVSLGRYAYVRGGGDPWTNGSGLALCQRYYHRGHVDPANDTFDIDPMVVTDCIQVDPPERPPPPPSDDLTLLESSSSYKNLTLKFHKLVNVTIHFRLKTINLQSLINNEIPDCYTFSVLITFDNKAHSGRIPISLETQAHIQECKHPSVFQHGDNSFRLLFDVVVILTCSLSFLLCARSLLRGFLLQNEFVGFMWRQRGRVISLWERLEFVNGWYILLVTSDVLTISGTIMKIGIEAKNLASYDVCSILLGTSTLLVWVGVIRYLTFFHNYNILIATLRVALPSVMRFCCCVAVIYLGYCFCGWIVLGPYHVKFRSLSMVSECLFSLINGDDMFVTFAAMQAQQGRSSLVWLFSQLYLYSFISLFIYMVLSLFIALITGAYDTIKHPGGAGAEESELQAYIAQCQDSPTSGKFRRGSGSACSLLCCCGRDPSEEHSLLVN
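TRPML1-DL cells, Tet-induced overnight (~16 h, 37 degrees C), loaded 45-90 min at room temperature with Ca8 no-wash calcium dye plus quencher. FDSS fluorescence: 10 s baseline, compound pin-transfer, 110 s agonist read, then EC80 54-4 (4uM final) and 110 s antagonist read.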
Six1-Eya2 blk: blocks human Six1 binding to Eya2. AlphaScreen GST-Six1/His-Eya2 binding, biochemical; stronger effect = lower value; control for the full effect not named in the record. activity change, % (no concentration beside the values). Q15475+O00167. AID 651725. 360,000 compounds, 0.56% hits; in the data active = activity change below about -65%; inconclusive = about -30% to -65%; inactive = above about -30%; further: on the % scale 0 is the no-effect control and ±100 the full control effect
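AlphaScreen luminescence read after one hour at 37 °C in darkness. Pin-transferred compounds met GST-Six1 and His-Eya2 protein (5X stock 250 nM/500 nM) plus glutathione donor and Ni-chelate acceptor beads (5X, 50 ug/mL).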
D2 agonist: agonists of human D2 dopamine receptor (beta-arrestin) | 360,000 compounds, 0.084% hits | activation, % (test concentration not listed) | DiscoveRx PathHunter D2 beta-arrestin, luminescence, 90 min; 100% = 57 uM dopamine signal | P14416; in the data active = activation above about 40%; inconclusive = about 15% to 40%; inactive = below about 15%; further: compound concentration not given in the record; the text of the record calls up to 30% inactive
Target sequence (P14416 whole entry, looked up): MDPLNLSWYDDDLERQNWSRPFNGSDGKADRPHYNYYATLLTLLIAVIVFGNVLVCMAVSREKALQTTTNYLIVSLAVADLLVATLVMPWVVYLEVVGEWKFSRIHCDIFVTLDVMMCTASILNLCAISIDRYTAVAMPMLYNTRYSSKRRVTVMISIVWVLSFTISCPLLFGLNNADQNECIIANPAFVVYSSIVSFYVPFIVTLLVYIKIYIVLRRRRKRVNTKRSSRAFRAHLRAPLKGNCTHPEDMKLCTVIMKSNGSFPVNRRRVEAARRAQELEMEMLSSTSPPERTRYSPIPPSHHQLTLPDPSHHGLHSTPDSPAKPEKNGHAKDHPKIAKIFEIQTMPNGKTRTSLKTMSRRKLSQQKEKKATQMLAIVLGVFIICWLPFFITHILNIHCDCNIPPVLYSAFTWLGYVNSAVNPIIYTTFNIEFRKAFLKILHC
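Agonist mode: compounds alone added to overnight-plated D2 PathHunter cells for 90 min at 37 C, with 57 uM final dopamine (EC100) defining full response. Beta-arrestin recruitment detected by chemiluminescent reagent, read after 1 h at ambient temperature.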
TRPML1 blocker: blocks the human TRPML1 channel; activity change, negative = inhibition, % (concentration not given with the values); 390,000 compounds, 0.02% hits; TRPML1-inducible cells, Ca2+ dye fluorescence, FDSS; stronger effect = lower value; inhibition of EC80 agonist-evoked calcium signal; AID 624415; Q9GZU1; in the data active means activity change below about -50%; inconclusive means about -30% to -50%; inactive means above about -30%;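 further: stimulus is agonist 54-4 at its EC80 concentration; on the % scale 0 is the no-effect control and ±100 the full control effect; the text of the record puts the active cut at -80%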
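Calcium fluorescence in TRPML1-DL cells induced overnight with Tet: a 110 s read after compound pin addition, then a 110 s antagonist read after challenge with 54-4 at 4 uM final (EC80).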
D2 potentiator: positive allosteric modulators of human D2 dopamine receptor | DiscoveRx D2 beta-arrestin cells, luminescence, 90 min; 100% = 57 uM dopamine signal | potentiation, % (concentration not given with the values) | 360,000 compounds, 0.23% hits | P14416; active = potentiation of 50% or more; inconclusive = 30% to 50%; inactive = 30% or less;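 further: tested on top of an EC20 dose of dopamine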
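PathHunter beta-arrestin assay in DiscoveRx D2 cells. Compounds were added with an EC20 of dopamine (50 nM final) for 90 min at 37 deg C. Luminescence was read 1 h after detection reagent, with 57 uM dopamine as the EC100 control.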
* marks the source's active call; other numbers are inactive results; ? = inconclusive; . = no result given; [ ] = another dose, or the depositor's remark. Compounds as they come; 1% or so of the library scored in one or more.

smiles	PINK1 modulator	TRPML1 agonist	Six1-Eya2 blk	D2 agonist	TRPML1 blocker	D2 potentiator
CC(CC(=O)N1CCc2ccccc21)S(=O)(=O)c1ccc2c(c1)NC(=O)CO2 (stereo unspecified)	-1.3%	0.0	4.0	2.3	41.4	-4.4
COc1ccc(C2c3ccc(O)cc3Oc3ncn(Cc4ccco4)c(=N)c32)cc1 (stereo unspecified)	3.3%	0.7	-22.6	0.7	19.3	6.7
COC(=O)/C=C(\C)N=Nc1c(O)[nH]c2ccccc12	-0.2%	-0.1	-22.3	-7.9	7.4	-2.2
CN1CCN(C(=O)C2=C[C@H](c3coc4ccccc4c3=O)C[C@H](OCCCCO)O2)CC1	-1.6%	-0.3	2.5	-1.3	-6.9	-8.3
CCOC(=O)N1CCN(C(=O)CSc2nnc(C3COc4ccccc4O3)o2)CC1 (stereo unspecified)	1.5%	0.9	5.3	-2.0	-4.7	2.9
Cn1c(C(=O)NCCc2ccccc2)cc2cc(S(=O)(=O)N3CCCCC3)ccc21	-0.1%	2.1	.	.	-8.3	.
C=CCn1c(O)c(CN2CCOCC2)c(C)c(C#N)c1=O	4.9%	1.1	-2.0	5.8	-7.9	11.4
Cc1cccc(OC(C)C(=O)N2CCC(c3nc4ccccc4o3)CC2)c1C (stereo unspecified)	0.7%	3.4	.	.	28.1	.
CC12CCC(c3nnc(SCc4ccc(Cl)cc4)nc31)C2(C)C (stereo unspecified)	1.1%	1.7	15.5	-3.0	41.5	-10.5
Cc1ccc(NC(=S)N(CCCN2CCN(C)CC2)Cc2cccs2)cc1C	-1.3%	-0.2	-8.2	-1.1	2.8	-16.2
O=C(OCn1nnc2ccccc2c1=O)c1ccc2c(=O)n3c(nc2c1)CCC3	-0.7%[38.3 µM]	-0.1	2.1	-3.4	0.9	-6.9
O=C(NCC1CCCO1)[C@@H]1CSC2c3ccccc3C(=O)N21 (stereo partly specified)	2.6%	-0.4	11.6	-0.7	-9.6	-5.0
COc1ccc(N2CCN(CCCNC(=O)c3nnc(Cc4ccccc4Cl)o3)CC2)cc1	0.9%	-0.6	.	.	-1.4	.
CCC(C)NC(=O)[C@H](CSCc1ccccc1)N1Cc2ccccc2C1=O (stereo partly specified)	0.3%	0.0	0.6	2.2	2.4	-6.1
Cc1ccc(N2C(=O)CSC2c2ccccn2)cc1Cl (stereo unspecified)	-0.1%[38.3 µM]	0.6	10.2	1.9	7.4	-6.0
COc1cc(CCC(=O)OCC(=O)NC(=O)c2ccc(Cl)cc2)cc(OC)c1OC	8.9%	-0.1	-5.0	3.4	21.4	-1.5
Cc1cccc(CC(=O)NC2CC(=O)N(c3ccc4c(c3)OCCO4)C2)c1 (stereo unspecified)	2.5%	-0.7	.	.	46.4	.
Cc1ccc(/C=N/NC(=O)c2cccc(S(=O)(=O)Nc3ccccc3Cl)c2)s1	2.6%	0.4	?	-5.4	-24.2	-9.7
Cc1nc2ccccc2nc1OCC(=O)Nc1ccc2ccccc2c1	19.5%	-0.8	3.5	-2.6	0.6	-9.9
CCCCN1C(=O)/C(=C/C=C2\Oc3ccccc3N2CC)SC1=S	?	?	-9.2	1.9	4.6	-8.1
CC1CCC(NC(=O)CN2CCN(S(=O)(=O)c3cccs3)CC2)CC1 (stereo unspecified)	-0.9%	-0.2	3.8	2.6	-15.0	-3.9
O=C(Nc1ccnn1C1CCN(Cc2ccc(C#CCCO)cc2)CC1)c1cccc(F)c1	-1.3%	0.3	-0.1	-4.4	1.4	-13.2
O=C(O)c1cc([N+](=O)[O-])ccc1NCc1cccnc1	-0.4%	0.7	2.0	-0.1	-8.6	-3.6
O=C(c1cccc(S(=O)(=O)N2CCOCC2)c1)N(Cc1ccc(F)cc1)Cc1ccco1	3.6%	1.2	-6.2	-3.3	29.8	-1.6

4 of the compounds above, with two lines to a compound.
Below each compound – PINK1 modulator | TRPML1 agonist | Six1-Eya2 blk | D2 agonist | TRPML1 blocker | D2 potentiator
Cc1cccc(CC(=O)NC2CC(=O)N(c3ccc4c(c3)OCCO4)C2)c1 (stereo unspecified)
    2.5% | -0.7 | . | . | 46.4 | .
Cc1ccc(/C=N/NC(=O)c2cccc(S(=O)(=O)Nc3ccccc3Cl)c2)s1
    2.6% | 0.4 | ? | -5.4 | -24.2 | -9.7
Cc1nc2ccccc2nc1OCC(=O)Nc1ccc2ccccc2c1
    19.5% | -0.8 | 3.5 | -2.6 | 0.6 | -9.9
CCCCN1C(=O)/C(=C/C=C2\Oc3ccccc3N2CC)SC1=S
    ? | ? | -9.2 | 1.9 | 4.6 | -8.1

Two compounds picked at random from those above, as already listed:
smiles	PINK1 modulator	TRPML1 agonist	Six1-Eya2 blk	D2 agonist	TRPML1 blocker	D2 potentiator
CCOC(=O)N1CCN(C(=O)CSc2nnc(C3COc4ccccc4O3)o2)CC1 (stereo unspecified)	1.5%	0.9	5.3	-2.0	-4.7	2.9
Cc1cccc(CC(=O)NC2CC(=O)N(c3ccc4c(c3)OCCO4)C2)c1 (stereo unspecified)	2.5%	-0.7	.	.	46.4	.

Additional records
smiles	PINK1 modulator	TRPML1 agonist	Six1-Eya2 blk	D2 agonist	TRPML1 blocker	D2 potentiator
COCCNC(=O)Cn1nc(C(F)(F)F)c(Br)c1C	0.5%[38.3 µM]	-0.5	5.9	-0.7	-2.6	5.2
Cc1c(C)n(CCN(C)C)c2ncnc(NCc3ccccc3)c12	0.8%	-0.4	-12.3	-2.2	-19.5	-7.8
C[C@H](CO)N1C[C@H](C)[C@@H](CN(C)S(=O)(=O)c2ccccc2C#N)OCc2cn(nn2)CCCC1=O	3.2%	-0.1	10.0	-9.7	2.1	3.8
Cn1c(=O)c2c(nc(CN3CCOCC3)n2CCN2CCOCC2)n(C)c1=O	-1.0%[38.3 µM]	3.3	-1.1	-2.7	11.7	-3.1
COc1ccc(-c2cc(C(=O)NCc3ccc(F)cc3)[nH]n2)c(C)c1	-0.1%	-1.1	-8.0	0.5	.	-7.8
CCCCCCSc1ccc([C@H]2N[C@@](CC(C)C)(C(=O)OC)[C@H]3C(=O)N(C)C(=O)[C@@H]23)cc1OC	4.9%	0.7	-6.1	-7.2	-26.6	-11.3
CCOC(=O)C1CCCN(Cc2cn3c(-c4cccc(Br)c4)nnc3s2)C1 (stereo unspecified)	1.6%	2.1	.	.	43.8	.
O=S(=O)(Cc1ccccc1)Nc1ccc(Br)cn1	0.8%	0.0	10.3	-4.9	-7.5	-1.6
COc1ccc(/C=N/NC(=O)CN(C2=NS(=O)(=O)c3ccccc32)c2ccccc2)cc1OC	0.7%	0.2	-12.1	1.1	6.0	-0.2
CN(C)CCCN(C(=O)c1ccco1)c1nc(-c2ccc(Cl)cc2)cs1	-1.3%	.	-2.4	-1.0	.	-81.0
N#C/C(=C/c1ccc(Oc2ccc([N+](=O)[O-])cn2)cc1)C(=O)N1CCOCC1	0.2%	0.9	-8.0	2.4	8.3	-5.8
COCCNC(=O)c1ccccc1NC(=O)c1ccccc1N(C)S(=O)(=O)c1ccc(C)cc1	0.8%	0.1	7.1	0.1	-21.3	-4.6
COc1ccc(-c2nsc(SCC(=O)Nc3ccc4c(c3)OCO4)n2)cc1	13.1%	3.0	0.4	-1.7	9.4	-17.7
COc1cccc(OC(=O)CSc2nnc(-c3ccc4c(c3)OCO4)o2)c1	0.4%	4.9	.	.	46.3	.
Cc1cc(-c2nnc(SCC(=O)c3ccc4c(c3)OCCO4)o2)no1	4.1%	0.0	9.1	1.4	30.0	-2.4
C=CCNC(=O)COc1ccc(Oc2ccccc2)cc1	1.8%	1.0	5.7	-4.7	23.0	-21.6
CN(C(=O)c1ccccc1C(=O)OCC(=O)NC(=O)NC(C)(C)C)C1CCCCC1	2.1%	0.0	-2.0	-5.7	-3.1	-11.0
Cc1nnsc1C(=O)Nc1ccc(S(=O)(=O)N2CCCCC2C)cc1 (stereo unspecified)	-0.2%	-0.3	-0.6	0.9	-6.5	-9.6
CCOc1ccccc1NC(=O)C(=O)Nc1ccc2nc3n(c(=O)c2c1)CCCCC3	1.4%	3.8	.	.	-8.7	.
CC(C)COC(=O)N(C)C[C@@H]1OCc2cnnn2CCCC(=O)N([C@@H](C)CO)C[C@H]1C	0.0%	0.1	1.8	-7.8	31.6	-2.7
O=C(CN(C(=O)c1csnn1)c1cccc(Cl)c1)NCCc1ccccc1	2.2%	-1.0	4.4	0.4	4.4	-4.7
O=S(=O)(Nc1cc(Cl)ccc1-n1cncn1)c1ccccc1Cl	1.9%	0.3	3.8	0.0	-14.9	-16.4
O=C(O)C1CCCCC1C(=O)Nc1ccc2c(c1)CCC2 (stereo unspecified)	0.3%	-0.3	20.8	-4.2	-8.1	-6.4
O=C(NNC(=O)C1C2CCC(C2)C1C(=O)O)c1ccc(Cl)cc1 (stereo unspecified)	0.0%	1.8	-6.1	0.3	19.2	-7.9

Whole records, quoted from the list. Screens in order: PINK1 modulator	TRPML1 agonist	Six1-Eya2 blk	D2 agonist	TRPML1 blocker	D2 potentiator
O=C(CN(C(=O)c1csnn1)c1cccc(Cl)c1)NCCc1ccccc1 in the list: 2.2%	-1.0	4.4	0.4	4.4	-4.7
O=C(O)C1CCCCC1C(=O)Nc1ccc2c(c1)CCC2 (stereo unspecified) in the list: 0.3%	-0.3	20.8	-4.2	-8.1	-6.4
O=S(=O)(Nc1cc(Cl)ccc1-n1cncn1)c1ccccc1Cl in the list: 1.9%	0.3	3.8	0.0	-14.9	-16.4
Cc1cc(-c2nnc(SCC(=O)c3ccc4c(c3)OCCO4)o2)no1 in the list: 4.1%	0.0	9.1	1.4	30.0	-2.4

The listing continues.
smiles	PINK1 modulator	TRPML1 agonist	Six1-Eya2 blk	D2 agonist	TRPML1 blocker	D2 potentiator
CCN(CC(O)COCc1ccc(Cl)cc1)C1CCCCC1 (stereo unspecified)	-0.9%	2.1	1.4	-7.0	-8.6	-15.2
Cc1ccc(C2CCN(C(=S)Nc3cccc(Cl)c3)C2)cc1 (stereo unspecified)	1.5%	0.1	6.7	-1.7	36.5	-9.3
COc1ccc(OCCOc2ccc(C)nc2[N+](=O)[O-])cc1	-0.7%	2.5	1.7	-2.4	13.2	-17.1
CCCN(CCC)S(=O)(=O)c1ccc(C(=O)Nc2ccc(OCC(=O)N3CCOCC3)cc2)cc1	.	0.5	2.5	0.4	-9.5	4.5
C=CCn1c(=S)[nH]c2ccccc2c1=O	1.8%	-0.8	5.5	-1.9	-7.7	-2.5
O=C(Cn1cc(S(=O)(=O)Cc2ccccc2F)c2ccccc21)Nc1ccc(F)c(Cl)c1	35.5µM*	3.0	.	.	-8.6	.
CCCCC(CCC(=O)O)(C(=O)OCC)c1csc(Nc2ccccc2)n1 (stereo unspecified)	0.3%	-0.6	4.5	0.8	-24.1	-4.2
Cc1csc(SC(C)C(=O)Nc2ccc(F)cc2Cl)n1 (stereo unspecified)	3.6%	-0.1	4.1	-0.4	20.3	-17.9
